Screening results (PubChem BioAssay)
ClpP mod = qHTS Assay for Activators of ClpP; Potency, µM (highest dose often 57.5 µM), for the others: at the highest dose activity change, negative = active; 340,000 compounds, 1.9% hits; ATP-dependent Clp protease proteolytic subunit (Bacillus subtilis (strain 168)), P80244; purified B. subtilis ClpP, FRET peptide cleavage, 20 min; active = well fitted falling curve with a large enough effect; inconclusive = small, poorly fitted or top-dose-only effect; inactive = no such curve, though single readings can be large or run the other way; note: potency is the fitted concentration of half-maximal effect; the source files actives as falling curves though it sought activators and does not explain the sign; nearly all actives have a fitted effect of over 65% in size; many hits overshoot -100%
Target sequence (P80244 whole entry, looked up): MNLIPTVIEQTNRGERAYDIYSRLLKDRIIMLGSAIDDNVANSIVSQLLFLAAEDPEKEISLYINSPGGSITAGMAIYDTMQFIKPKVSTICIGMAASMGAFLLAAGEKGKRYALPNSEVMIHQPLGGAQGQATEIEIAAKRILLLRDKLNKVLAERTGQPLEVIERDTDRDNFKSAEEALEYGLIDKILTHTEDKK
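Purified B. subtilis ClpP, 10 microg/mL final in Tris/HCl pH8 with KCl, BSA, glycerol and Tween-20, cleaved an Abz/nitrotyrosine-quenched decapeptide. Fluorescence (ex 320, em 430) was read at 0 and 20 min at room temperature. Delta was normalized to 5.8 microM ADEP and DMSO/no-enzyme controls.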
PINK1 expr mod = changes PINK1 expression; PINK1 immunofluorescence, high-content cytometry, 24 h; Potency, µM (highest dose often 76.6 µM), without a hit: top-dose activation (PINK1 increase), hits mostly activators; 410,000 compounds, 0.2% hits; AID 624263; active = well fitted activation curve with a large enough effect; inconclusive = small, poorly fitted or top-dose-only effect; inactive = flat fitted curve, though single readings scatter; cell line not stated here;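 note: potency is the fitted concentration of half-maximal effect; % of control where 0% means no effect; nearly all actives have a fitted effect of over 65% in size; a mitochondrial uncoupler was the plate control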
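Cells are seeded, rested 12 hours, then given compound at five concentrations or DMSO for 24 hours. After fixation, blocking and antibody staining, PINK1 amount and mitochondrial localization are scored; CCCP serves as control.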
Sfp PPTase inh = blocks B. subtilis Sfp PPTase activity; 310,000 compounds, 3.5% hits; AID 1490; Q9F4F7; Biochemical Sfp PPTase activity, qHTS; Potency, µM, inactives show max response, negative = inhibition, actives largely listed as inhibitors; active = well fitted inhibition curve with a large enough effect; inconclusive = small, poorly fitted or top-dose-only effect, or another doubt; inactive = no such curve, though single readings can be large or run the other way;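 note: the enzyme is Sfp with the accession as filed and its product quenches rhodamine fluorescence; potency is the fitted concentration of half-maximal effect; 0% = enzyme reaction without inhibitor and -100% = no enzyme wells; top concentration of the series not given in the record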
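After 15 min at room temperature with compound, 15 nM Sfp received 5 uM rhodamine-CoA plus 12.5 uM BHQ-2-ybbR (50 mM Hepes pH 7.6, 10 mM MgCl2). Rate came from the fluorescence difference over 30 min, ex 525/em 598 nm.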
TRPV1 potentiator = enhances activation of the human vanilloid receptor TRPV1; potentiation, % at 8.33 µM; TRPV1-expressing cells, Fluo-8 calcium influx, capsaicin EC20 potentiation; host cell line not named in the record; control for the full effect not named in the record; 320,000 compounds, 0.02% hits; active means potentiation above 80%; inconclusive means 30% to 80%; inactive means below 30%; note: 0% is about no effect
Target sequence (Q8NER1 whole entry, looked up): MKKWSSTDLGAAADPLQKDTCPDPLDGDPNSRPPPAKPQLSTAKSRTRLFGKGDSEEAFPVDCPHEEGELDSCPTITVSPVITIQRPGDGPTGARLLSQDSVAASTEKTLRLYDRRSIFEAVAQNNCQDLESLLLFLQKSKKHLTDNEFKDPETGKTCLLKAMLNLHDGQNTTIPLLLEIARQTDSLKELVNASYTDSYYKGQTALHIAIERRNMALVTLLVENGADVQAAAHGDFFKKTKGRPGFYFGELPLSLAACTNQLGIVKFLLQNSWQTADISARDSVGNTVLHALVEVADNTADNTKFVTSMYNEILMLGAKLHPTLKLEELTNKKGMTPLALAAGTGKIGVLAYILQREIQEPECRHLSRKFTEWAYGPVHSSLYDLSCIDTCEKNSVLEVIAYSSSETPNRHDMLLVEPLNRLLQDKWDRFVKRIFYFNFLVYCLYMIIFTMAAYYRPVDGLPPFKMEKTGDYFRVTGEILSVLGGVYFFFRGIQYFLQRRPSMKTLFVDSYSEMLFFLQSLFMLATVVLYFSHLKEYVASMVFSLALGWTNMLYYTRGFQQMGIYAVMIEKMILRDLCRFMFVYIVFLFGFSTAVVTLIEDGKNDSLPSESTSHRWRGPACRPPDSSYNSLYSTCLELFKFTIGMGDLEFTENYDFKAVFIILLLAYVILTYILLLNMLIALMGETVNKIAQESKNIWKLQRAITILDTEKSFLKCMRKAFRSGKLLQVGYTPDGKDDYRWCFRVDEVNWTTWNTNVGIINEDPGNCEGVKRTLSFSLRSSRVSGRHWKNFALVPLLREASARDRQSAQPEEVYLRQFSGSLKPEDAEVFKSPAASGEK
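Fluo-8 calcium influx in TRPV1-expressing cells, kinetic read (ex 480/em 520 nm). Compound added and read 3 min for agonist activity, followed by capsaicin at EC20 final and 2 min further read for enhancement.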
TRPML1 blocker = inhibitors of human TRPML1 channel. 390,000 compounds, 0.02% hits. TRPML1-inducible cells, Ca2+ dye fluorescence, FDSS; stronger effect = lower value; inhibition of EC80 agonist-evoked calcium signal. AID 624415. activity change, negative = inhibition, % (test concentration not listed). Q9GZU1; in the data active means activity change below about -50%; inconclusive means about -30% to -50%; inactive means above about -30%;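 note: stimulus is agonist 54-4 at its EC80 concentration; % is set by controls: 0 for no effect and ±100 for the full control effect; compound concentration not given in the record; the text of the record puts the active cut at -80%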
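TRPML1-DL cells, Tet-induced overnight (~16 h, 37 °C) at 1,500 cells/well, were loaded with Ca8 no-wash dye plus quencher for 45-90 min at room temperature. Compounds were pinned during FDSS kinetic reading; agonist 54-4 at EC80 (4 uM final) then added.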
TRPML1 ag = activates the human TRPML1 channel | TRPML1-expressing cells, Ca2+ dye fluorescence, FDSS; host cell line not named in the record; reference of the full effect not given here | AID 624414 | Q9GZU1 | activation, % (concentration not given with the values) | 410,000 compounds, 0.12% hits; in the data active = activation above about 50%; inconclusive = about 30% to 50%; inactive = below about 30%; note: 0% is about no effect; the text of the record puts the active cut at 80%
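In this qHTS format, compounds were pin-transferred onto Ca8-dye-loaded TRPML1-DL cells induced with Tet overnight, and intracellular Ca2+ fluorescence was recorded kinetically for 110 s after a 10 s baseline. A subsequent 4uM final 54-4 (EC80) addition followed by a second 110 s read served as the antagonist phase.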
Menin MLL FP FL = menin-MLL binding inhibition, fluorescein peptide; Fluorescence polarization, fluorescein-MLL peptide displacement from menin; FP activity change, % at 61.4 µM; 290,000 tested, under 10 active; AID 1766; inconclusive = falling polarisation curve, or a change in total fluorescence; inactive = total fluorescence flat and polarisation flat or rising; no compound was filed as active; the % refers to the polarisation; negative = inhibition;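 note: % of control where 0% means no effect; inhibitors lower the polarisation; unlabelled MLL peptide was the positive control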
* hit, by the source's call; ? = inconclusive; · = no result given; [ ] = dose if it differs, or a comment.

SMILES	ClpP mod	PINK1 expr mod	Sfp PPTase inh	TRPV1 potentiator	TRPML1 blocker	TRPML1 ag	Menin MLL FP FL
COc1ccc(NC(=O)c2ccc(-c3ccc(F)cc3)o2)cc1OC	-1.7%	-0.4%	·	·	0.5	-0.4	·
COc1cccc(-c2nccc(-n3ccnc3)n2)c1	·	-0.6%	-28.4%	·	·	·	-2.3
CC1=C(C)CC(C(=O)NCC(=O)c2ccccc2)C(C(=O)O)C1 (stereo not drawn)	0.7%	·	18.4%	0.3	1.5	0.2	1.2
C=CCn1c(O)c(N=NC(=S)Nc2ccccc2F)c2cc(S(=O)(=O)N3CCOCC3)ccc21	-1.8%	0.4%	18.6%	7.2	-1.7	-1.2	2.0
O=C(NCc1ccccc1Cl)C(=O)NCC1OCCCN1S(=O)(=O)c1cccs1 (stereo not drawn)	30.1%	0.2%	6.4%	-3.1	3.7	-0.5	·
Cc1cc(Nc2ccc(C)c(Cl)c2)n2nc(-c3ccccc3)nc2n1	4.3%	?	·	·	-2.0	-0.6	·
COc1cccc(N(CC(=O)NCCSc2ccc(Cl)cc2)S(C)(=O)=O)c1	-1.5%	-1.8%	9.7%	-3.7	-3.1	0.7	7.4
CCN(CC)C(=O)Oc1ccc2ccccc2c1Cl	-3.7%	2.2%	9.3%	-2.8	3.1	1.1	3.1
COc1ccccc1OC(C)C(=O)Nc1ccc(S(=O)(=O)N2CCN(C)CC2)cc1 (stereo not drawn)	·	-2.1%	13.5%	1.6	40.0	0.0	-3.5
CCc1ccccc1NC(=O)CN(C)C(=O)c1cc(C2CC2)nc2c1cnn2C(C)C	-12.2%	0.5%	·	7.1	?	1.9	·
COc1ccc(-c2noc(N3CCC(C(=O)NCCCN4CCCC(C)C4)CC3)n2)cc1 (stereo not drawn)	0.2%	0.0%	6.9%	1.4	-13.0	0.0	4.5
CCc1ccc(C2c3[nH]c4ccccc4c3CCN2C(=O)CNC(N)=O)cc1 (stereo not drawn)	-3.9%	1.3%	-1.7%	-6.8	10.9	-0.2	-0.1
CS(=O)(=O)Nc1ccccc1C(=O)O	?	1.7%[38.3 µM]	7.7%	-0.1	14.9	0.2	8.4
CCCc1ccc2c(N)c(C#N)sc2n1	-9.9%	0.6%[38.3 µM]	3.5%	-13.1	3.3	0.9	-1.0
COc1ccccc1-c1cc(C(=O)Nc2c(C)nn(Cc3ccc(Cl)cc3)c2C)no1	-3.0%	7.0%	·	·	-2.1	1.6	·
CCN(CC)c1ccc(C(=O)NNC(=O)CCNC(=O)c2ccccc2)cc1	-1.5%	-0.5%	·	4.4	-0.4	0.0	·
Cc1ccc(C(=O)N2CCN(S(=O)(=O)c3ccccc3)CC2)s1	-7.7%	0.7%	·	12.7	-12.5	-0.8	·
O=[N+]([O-])c1ccc(Cl)c(/C=N/n2c(C3CCCCC3)n[nH]c2=S)c1	-1.3%	9.8%	7.3%	2.4	-2.9	0.0	0.0
COc1ccc(C2C3=C(CC(C)(C)CC3=O)Oc3ncn4nc(-c5cccnc5)nc4c32)cc1 (stereo not drawn)	·	-1.0%	·	·	-20.3	0.7	·
O=[N+]([O-])c1ccc(Cl)cc1N1CCCC1	2.9%	-0.5%	9.8%	8.5	9.0	-0.2	0.3
Cc1c(Cl)cnc(NC(=O)COC(=O)c2ccc3ncsc3c2)c1Cl	·	9.9%	0.3%	-3.2	-1.1	-0.4	12.8
COc1cc(S(=O)(=O)N2CCCCC2)c(OC)cc1Br	-1.2%	5.4%	-8.8%	-11.0	19.3	1.2	-5.6
O=C(COc1ccc(Cl)cc1Cl)Nc1ccc(S(=O)(=O)NC2=NCCCCC2)cc1	-1.8%	2.4%	13.8%	?	-5.0	-1.1	3.2
COc1ccc(CN(C)C(=O)Cn2cnc(C(=O)Nc3ccc(C)c(C)c3)n2)cc1OC	0.4%	-0.2%	·	·	31.8	-0.3	·
Fc1ccc(CN2CCCCCC2)c(F)c1	0.9%	-1.3%	-6.3%	1.1	-8.4	-0.2	0.2
Brc1ccccc1-n1nnc(-c2nccs2)n1	-3.2%	1.7%	-8.7%	23.9	-5.1	-0.6	1.1
O=C(N/N=C/c1ccc([N+](=O)[O-])s1)c1cccc(Br)c1	0.7%	-1.9%	-17.5%	5.9	3.0	-0.1	2.1
O=S(=O)(CC(c1ccccc1)N1CCCCC1)c1ccc(Cl)cc1 (stereo not drawn)	·	0.3%	14.0%	-2.2	-7.6	0.8	2.3
CCOC(=O)c1c(-c2ccccc2)csc1NC(=O)c1cc(-c2ccc(C)c(F)c2)on1	13.4%	-0.4%	·	·	-5.0	-0.7	·
Nc1nnc(CSCc2ccc(Cl)cc2)s1	0.1%	-0.1%	7.0%	1.2	-8.9	-0.9	1.6
c1ccc2nc(N3CCOCC3)c(N3CCOCC3)nc2c1	-5.8%	-1.2%	11.6%	7.7	-16.5	-1.0	1.2
O=C(NCc1ccc(F)cc1)c1ccc(CS(=O)Cc2ccc(Cl)cc2)o1 (stereo not drawn)	-0.7%	-1.1%	·	·	17.6	0.6	·
O=C(NC(=S)Nc1ccc2c(c1)OCCO2)c1ccco1	·	-0.3%	1.9%	-14.2	-7.0	0.5	0.2
CCc1nnc(SCc2nc(-c3cccc(C)c3)oc2C)c2cc3sc(C)cc3n12	-12.3%	2.4%	·	·	-4.3	-0.1	·
COc1ccc(OCc2nnc(SCC(=O)NC3CC3)n2C)cc1	-2.7%	-0.2%	13.6%	-8.1	1.8	-0.4	-0.6
COc1ccc(N2C(=O)/C(=C\c3ccco3)N=C2SCC(=O)N(C(C)C)C(C)C)cc1Cl	-1.2%	6.9%	56.2µM*	-2.8	47.8	-0.3	?
COC(=O)c1c(-c2cccs2)csc1NC(=O)COc1ccc(C(C)C)cc1	28.2µM*	-0.7%	·	·	26.5	2.6	·
CC(=O)c1ccc(-c2cnc3c(NC=O)cc(-c4cnn(C)c4)cn23)cc1	-28.9%	1.0%	·	·	·	-1.0	·
CC(=O)c1ccc(NC(=O)CN2C(=O)COc3ccc(S(=O)(=O)N4CCCC4)cc32)cc1	-0.9%	-0.1%	8.7%	3.5	-4.8	-0.4	0.3
Cc1ccc(C(=O)NC2CCCC(C)C2C)cc1S(=O)(=O)N1CCCCC1 (stereo not drawn)	·	22.4%	·	-10.6	67.7	1.9	·
COc1cc2cnc(Cl)nc2cc1OC	?	-1.5%	4.9%	-2.3	5.9	0.4	2.1
OC1CCN(C(=S)NCCc2ccccc2)CC1	-3.2%	1.4%	21.6%	-3.2	-7.1	1.5	3.7
Cc1nccn1CCN(C)Cc1cn(Cc2ccccc2)nc1-c1ccc2c(c1)OCO2	·	1.0%	10.8%	-3.9	4.4	-0.5	?
CCOc1ccc(C(=O)c2cn(CC(=O)Nc3ccc(F)cc3)c3cc4c(cc3c2=O)OCO4)cc1	-7.2%	2.8%	·	·	-6.5	0.6	·
COc1cccc(Nc2nnc(SCC(=O)N3CC(C)OC(C)C3)s2)c1 (stereo not drawn)	-0.2%	1.1%[38.3 µM]	15.8%	0.7	12.1	2.4	6.0
CCc1cc(=O)[nH]c(SCC(=O)NCC2CCCO2)n1 (stereo not drawn)	·	2.8%	·	2.1	4.0	-0.1	·
O=c1[nH]c2ccc(Cl)cc2c(-c2ccccc2)c1SC(=S)N1CCCCC1	0.5%	6.3%	14.1µM*	0.7	-17.2	0.1	1.7
CC(C(=O)c1ccc(-c2ccccc2)cc1)[n+]1cccc(C(N)=O)c1 (stereo not drawn)	1.3%	-1.4%	1.3%	-2.1	-11.9	-0.4	-0.9
CNC(=O)COc1ncnc2scc(-c3ccc(F)cc3)c12	-3.9%	-0.6%	18.4%	4.6	4.4	1.4	2.7
N#Cc1ccc(CSc2nnc(NC(=O)CCc3nc4ccccc4c(=O)[nH]3)s2)cc1	-12.1%	?	·	-4.3	1.0	0.4	·
CCOC(=O)CSc1nnc2n(C3CCCCC3)c(=O)c3c4c(sc3n12)CCCC4	-0.8%	15.5%[38.3 µM]	-16.0%	-4.7	4.1	4.4	0.4
CCOC(=O)C(NC(=O)CC)(Nc1ccc(S(=O)(=O)Nc2cc(C)on2)cc1)C(F)(F)F (stereo not drawn)	-1.1%	2.9%	7.4%	-3.3	-2.0	-0.8	5.6
Cc1ccc(C(=O)N/N=C\c2cc3c(cc2Br)OCO3)s1	0.4%	8.4%	9.6%	18.7	12.3	0.8	6.0
CCCNC(=O)COC(=O)/C=C/c1ccc(C)o1	·	4.4%	6.6%	-5.2	-1.6	0.0	17.1
O=C(COc1cccc2ccccc12)NNC(=O)c1cccs1	17.8µM*	-2.0%	5.2%	11.5	2.8	-0.2	-11.4
COc1ccc2cc(C(=O)C3CCCN(Cc4cccc(C)n4)C3)ccc2c1 (stereo not drawn)	·	0.2%	1.5%	-4.7	-11.4	0.7	-2.6
CN(C(=O)C(=O)c1cn(CC(=O)N2CCCC2)c2ccccc12)C1CCCCC1	-0.9%	1.6%	-2.4%	5.7	-2.7	0.4	3.9
CCCOC(=O)C(C)n1cnc2scc(-c3ccc(C)cc3)c2c1=O (stereo not drawn)	-0.1%	1.0%	11.4%	?	-11.6	2.1	2.5
CCOC(=O)C1CCCN(CC(=O)Nc2nc(-c3ccccc3)cs2)C1 (stereo not drawn)	1.0%	2.6%	5.6%	2.2	-10.9	0.4	3.5
Cn1c(C(=O)N2CCC(C(=O)N3CCN(Cc4ccc5c(c4)OCO5)CC3)CC2)cc2sccc21	2.5%	1.6%	-4.8%	-10.1	18.8	-0.2	4.0

The list continues.
SMILES	ClpP mod	PINK1 expr mod	Sfp PPTase inh	TRPV1 potentiator	TRPML1 blocker	TRPML1 ag	Menin MLL FP FL
COc1ccccc1N1CCN(C(=O)CN2C(=O)COc3ccc(S(=O)(=O)N4CCC(C)CC4)cc32)CC1	-1.0%	0.3%	·	·	4.2	4.9	·
O=C1CC(SC2=NCCS2)C(=O)N1c1ccc(Cl)cc1 (stereo not drawn)	1.1%	2.4%	3.8%	-7.9	5.5	0.1	0.7
COC(=O)c1cc(C)nc2c1c(=O)nc(SCc1ccccc1F)n2C1CC1	0.5%	0.7%	·	·	21.2	0.4	·
O=C(OCc1cc(=O)n2c(n1)sc1ccccc12)c1ccc2c(=O)n3c(nc2c1)CCC3	-26.7%	-0.5%	-5.2%	-16.0	4.7	0.0	1.0
